# 2A firefly: lowers the firefly signal of an FMDV 2A StopGo reporter. HEK cells with a luciferase reporter of 2A StopGo recoding. Potency, µM (highest dose often 57.5 µM), inactives show at the highest dose signal change, negative = less light. hit rate 0.23% among 120,000. AID 1745856; active = well fitted falling curve with a large enough effect; inconclusive = small, poorly fitted or top-dose-only effect; inactive = no such curve, though single readings can be large or run the other way; also: nearly all actives have a fitted effect of over 60% in size; overnight with compound
# 2A Renilla: lowers the Renilla signal of an FMDV 2A StopGo reporter | HEK cells with a luciferase reporter of 2A StopGo recoding | Potency, µM (titrated, usually from 57.5 µM), without a hit: at the highest dose signal change, negative = less light | hit rate 0.32% among 120,000; active means well fitted falling curve with a large enough effect; inconclusive means small, poorly fitted or top-dose-only effect; inactive means no such curve, though single readings can be large or run the other way; also: nearly all actives have a fitted effect of over 55% in size; overnight with compound
# * marks the source's active call; other numbers are inactive results; ? = inconclusive; & = joins results of further samples; [ ] = dose if it differs, or a comment. % is scaled to controls: 0 for no effect and ±100 for the full control effect; potency is read from the fitted curve at half-maximal effect. Some of the compounds tested (hit frequency here may not be typical).
SMILES,2A firefly,2A Renilla
CC1CN(S(=O)(=O)c2ccc3c(c2)NC(=O)CC(=O)N3)c2ccccc2O1 (configuration not stated),-23%,-9%
COc1cccc(CNS(=O)(=O)c2cnc(N)nc2)c1,-4%,3%
ClCCN1CCCC1,18%&-23%,-22%&-18%
Cc1ccc(Cl)cc1Nc1nn2c(=O)c3ccc(C(=O)Nc4ccc(F)cc4)cc3nc2s1,3%,2%
Cc1sc(-c2cc3c([nH]c2=O)CC(c2ccco2)CC3=O)nc1-c1ccc(Cl)cc1 (configuration not stated),-13%,-19%
CCC(=O)N1CCc2cc(S(=O)(=O)NC(C(=O)Nc3ccc(C(C)=O)cc3)C(C)C)ccc21 (configuration not stated),0%,-11%
COc1ccc(C(=O)CCC(=O)Nc2ccc(OC)c(Cl)c2)cc1,-5%,-9%
Cc1oc2ccc(O)c(CN3CCN(C)CC3)c2c1C(=O)Nc1ccc(C(C)C)cc1,20%,12%
CC(=O)c1ccc(NC(=O)COCc2cc(-c3ccco3)on2)cc1,-9%,88%[activator]
CCc1nn2c(=O)cc(CNc3cc4c(cc3Br)OCCO4)nc2s1,11%,84%[activator]
CCCCN(CC)C(=O)c1nn(C)c2c1CSc1ccccc1-2,22%,47%[activator]
CC1CCN(C(=O)C2CCN(C(=O)Cc3c[nH]c4ccccc34)CC2)CC1,-8%,-14%
O=C(COC(=O)c1c[nH]c2ccccc12)Nc1ccccc1,62%[activator],-3%
O=C(Nc1ccc2nc(SCC(=O)N3CCCC3)sc2c1)c1ccccc1F,22%,45%[activator]
O=C(CNc1nc(-c2ccccc2)nc2ccccc12)N1CCCC1,84%[activator],44%[activator]
O=S(=O)(Nc1nc2ccccc2nc1NCCc1ccccc1)c1ccc(F)cc1,23%,50%[activator]
Cc1ccc(S(=O)(=O)N2CCCN(c3nnnn3-c3ccccc3)CC2)cc1,-13%,-7%
CCCCC(CC)CNC(=O)CN(C)S(=O)(=O)c1ccc2c(c1)c(=O)n(C)c(=O)n2C (configuration not stated),-6%,8%
COc1ccc(-n2c(=O)c3ccccc3n(Cc3ccccc3C)c2=O)c(OC)c1,-2%,9%
CCCCCNC(=O)c1c[nH]c2ccc(S(=O)(=O)N3CCC(C)CC3)cc2c1=O,0%,6%
Cc1ccc(NC(=O)CN2C(=O)C(c3ccc(C)cc3)=NC23CCCCCC3)cc1,0%,-6%
Cc1nn(C(=O)c2cccc(F)c2)c(C)c1S(=O)(=O)N1CCOCC1,-12%,-8%
Cc1nn(S(=O)(=O)c2ccc(F)cc2)c(C)c1S(=O)(=O)N1CCCCCC1,-17%,-9%
O=C(NCCc1ccc(Cl)cc1)C(=O)NCC(c1ccc2c(c1)OCO2)N1CCOCC1 (configuration not stated),-13%,-6%

# Taken from above:
# Value of O=C(Nc1ccc2nc(SCC(=O)N3CCCC3)sc2c1)c1ccccc1F under 2A firefly: 22%
# Value of Cc1sc(-c2cc3c([nH]c2=O)CC(c2ccco2)CC3=O)nc1-c1ccc(Cl)cc1 (configuration not stated) under 2A Renilla: -19%

# Remaining list, next part
SMILES,2A firefly,2A Renilla
COC(=O)C1(NC(=O)COc2cc(Cl)ccc2Cl)CCCCCC1,?,5µM*
O=C(Nc1oc2ccccc2c(=O)c1-c1ccc2c(c1)OCO2)c1ccccc1,114%[activator],46%[activator]
CC(C)CNC(=O)C(=O)NC1CC(C)(C)NC(C)(C)C1,-10%,9%
CC1=C(C(=O)NCc2ccc(C)cc2)C2(CCCCC2)OC1=O,-13%,-2%
CCN(CC)CC(=O)Nc1ccc(Cl)cc1C(=O)c1ccccc1,-2%,84%[activator]
Cc1nn2c(=O)cc(COC(=O)c3ccccc3NC(=O)C3CCCCC3)nc2s1,7%,1%
CCN(CC)C(=O)/C=C/c1cccs1,78%[activator],4%
O=C(CSc1nc2nc[nH]c2c(=O)[nH]1)Nc1ccc(Br)cc1,-6%,-12%
Cc1cc(NC(=O)N2CCC(CN3CCCCCC3)CC2)ccc1Br,11%,-15%
CCn1cnc2c1c(=O)n(CC(=O)OC)c(=O)n2Cc1ccccc1,1%,-3%
CCOC(=O)C1CCN(C(=O)c2c(C)nn(-c3ccc(F)cc3)c2-n2cccc2)CC1,14%,2%
Cc1ccc(CN2CCSc3ccc(C(=O)N4CCN(c5ccc(Cl)cc5)CC4)cc32)cc1,7%,12%
Cc1ccc(C(=O)Nc2ccc3[nH]c(=O)c(=O)[nH]c3c2)cc1,-8%,98%[activator]
Cc1ccc(/C=C/C(=O)O)cc1,0%,-4%
Cn1nc(C(=O)N2CCOCC2)cc1C(=O)Nc1cc(Cl)cc(Cl)c1,0%,7%
COc1cccc(-n2c(=O)c3c(C)c(C)sc3n(Cc3ccccc3C#N)c2=O)c1,-16%,-7%
CCN(Cc1nc2cc(Cl)ccc2c(=O)[nH]1)C(=O)c1cc(Cl)c(OCC(N)=O)c(OC)c1,15%,29%
COc1ccc(NC(=O)Cc2c(C)c3c(OC)cc(C)cc3oc2=O)c(OC)c1,0%,9%
Cc1ccc(CN(Cc2ccco2)c2cnc(S(C)(=O)=O)nc2C(=O)Nc2ccccc2Br)o1,-22%,-18%
O=C(Nc1ccccc1Cl)c1nn(Cc2ccccc2)c(=O)c2ccccc12,-14%,-14%
CCN(CC)S(=O)(=O)c1ccc(NC(=O)CN(c2ccccc2)S(C)(=O)=O)cc1,25%,70%[activator]
O=C(O)C12CC3CC(CC(Br)(C3)C1)C2,19%,2%
O=C(CSc1nnc(-c2ccncc2)n1-c1ccc(Cl)cc1)c1c[nH]c(C(=O)N2CCCC2)c1,57%[activator],72%[activator]
COc1cccc(Cn2nnc3c(=O)[nH]c(C4CCN(C(=O)c5ccccc5Cl)CC4)nc32)c1,3%,25%
COc1ccc(OC)c(-n2c(=O)[nH]c3cc(C(=O)NCCc4ccc(OC)c(OC)c4)ccc3c2=O)c1,-16%,-1%
COc1ccc(N2C(=O)CSC23C(=O)N(CC(=O)Nc2ccccc2F)c2ccccc23)cc1 (configuration not stated),0%,7%
COc1cccc(C(=O)Nc2ccc3oc(=O)ccc3c2)c1,2%,11%
O=C(COCc1nc2ccccc2c(=O)[nH]1)Nc1nc(-c2ccc3c(c2)CCC3)cs1,74%[activator],-19%
Cn1c(Br)nc2c1c(=O)n(Cc1ccccc1Cl)c(=O)n2C,-12%,-11%
Cc1ccc(-c2cnoc2NC(=O)CSc2nc3c(c(=O)[nH]2)CCC3)cc1,2%,-8%
CCOc1ccc(-c2noc(-c3nnn(-c4cc(C)ccc4C)c3N)n2)cc1,-5%,3%
CCCCn1c(N)c(N(CCC)C(=O)c2cccnc2SC)c(=O)[nH]c1=O,-12%,23%
CC(C)Cc1noc(CN2CCC(c3nc4cc(Cl)ccc4o3)CC2)n1,?,?
CCOc1ccc(OCC(=O)NCCS(=O)(=O)N2CCN(c3ccccc3F)CC2)cc1,-19%,-6%
COc1ccc(-c2cn3nc(SCC(=O)Nc4cc(C)cc(C)c4)ccc3n2)cc1,101%[activator],-5%
C=CCn1c(SCc2ccccc2Cl)nc2c1c(=O)n(C)c(=O)n2C,4%,-8%
CNC(=S)N/N=C/c1ccc(F)cc1F,101%[activator],15%
CCN(CC)C(CNS(=O)(=O)c1ccc(C)cc1)c1ccsc1 (configuration not stated),-6%,40%[activator]
Cc1nc(NC(=O)C(C)Sc2nnc(-c3cccc(F)c3)n2C)sc1C (configuration not stated),9%,33%[activator]
CCOC(=O)c1cnc2c(C)cc(C)cc2c1NCCN(C)C,-2%,3%
CNC(=O)c1ccc(-c2nc(CN3CCN(C(=O)Nc4cc(Cl)ccc4C)CC3)c(C)o2)cc1,22%,16%
CC(=O)OCC[N+](C)(C)C,0%[11.5 µM],3%
CCOC(=O)c1ccc(OCC2c3cc(OC)c(OC)cc3CCN2C(=O)Cc2ccc(OC)c(OC)c2)cc1 (configuration not stated),0%,59%[activator]
COc1cc2[nH]c(C(=O)N3CCc4ccccc4C3)cc2c(OC)c1OC,30%[activator],84%[activator]
Cc1nc(Nc2nc(CSc3ccc(Cl)cc3)cc(=O)[nH]2)nc2ccccc12,-17%,-19%
CC1CCC(C(C)C)C(OC(=O)COC(=O)c2c(F)cccc2Cl)C1 (configuration not stated),-8%,-8%
CSc1ccccc1C(=O)OCC(=O)NCc1cccs1,47%[activator],20%
CCOc1ccccc1N1CC(c2nc3ccccc3n2CCCCOc2cc(C)ccc2C)CC1=O (configuration not stated),-11%,37%[activator]
COc1ccc(NC(=O)C(=O)NC(C)C)cc1N1CCCCS1(=O)=O,-4%,-10%
COc1ccc2c(ccn2CC(=O)Nc2ccc3c(c2)OCCO3)c1,122%[activator],83%[activator]
COc1ccc(-c2nc3ccccc3o2)cc1NC(=O)COc1cc(C)cc(C)c1,22%,-10%
O=C(Cc1ccc(F)cc1)OCc1cc(-c2ccccc2)no1,10%,14%
CCCCN(CC)CCCNC(=O)CCN1N=C(c2ccc(OC)cc2)CCC1=O,-19%,-9%
O/N=C\c1ccc(OCc2ccccc2Cl)cc1,262%[activator],27%
Cc1cccc(OCCN(C)C(=O)c2n[nH]c(=O)c3ccccc23)c1,-3%,-3%
C=C(C)Cn1c(SCc2ccc(F)cc2)nc2c1c(=O)n(C)c(=O)n2C,-20%,-20%
COc1ccc(OCC(=O)N2CCN(C(=O)c3ccc(OC)cc3)CC2)cc1,-11%,-10%
CC1=C(C(=O)Nc2ccccc2C)C(c2ccncc2)n2nc(SCc3ccccc3Cl)nc2N1 (configuration not stated),6%,-3%
O=C(Cc1cccc2ccccc12)Nc1cccc2ncccc12,?,?
CC1CN(C(=O)N2CCC(C(=O)NCc3cccs3)CC2)c2ccccc2O1 (configuration not stated),8%,2%

# Structures shown so far containing a furan ring, fused or not, in the order listed:
SMILES,2A firefly,2A Renilla
Cc1sc(-c2cc3c([nH]c2=O)CC(c2ccco2)CC3=O)nc1-c1ccc(Cl)cc1 (configuration not stated),-13%,-19%
Cc1oc2ccc(O)c(CN3CCN(C)CC3)c2c1C(=O)Nc1ccc(C(C)C)cc1,20%,12%
CC(=O)c1ccc(NC(=O)COCc2cc(-c3ccco3)on2)cc1,-9%,88%[activator]
Cc1ccc(CN(Cc2ccco2)c2cnc(S(C)(=O)=O)nc2C(=O)Nc2ccccc2Br)o1,-22%,-18%

# Other entries
SMILES,2A firefly,2A Renilla
CC(C)c1ccc(C2C(C#N)=C(SCC(N)=O)NC3=C2C(=O)CCC3)cc1 (configuration not stated),7%,63%[activator]
COc1ccccc1OCC(=O)OCC(=O)Nc1ncc(Cl)cc1Cl,-1%,-10%
Cc1ccc(Cn2cc(CN3[C@H](Cc4ccccc4)COc4cc(Br)ccc4S3(=O)=O)nn2)cc1,15%,22%
Cc1cccc(OCc2nc3c4c(ncn3n2)OC2=C(C(=O)CCC2)C4c2ccco2)c1C (configuration not stated),20µM*,?
Cc1cc(=O)oc2c(C)c(OCC(=O)Nc3ccc(Br)cc3)ccc12,17%,-9%
COc1ccc(OC)c(NC(=O)Cc2sc(C)nc2-c2cccs2)c1,-5%,-6%
O=C(NCc1cccnc1)C(F)(F)C(F)(F)C(F)(F)F,-6%,?
Cc1ccccc1CNC(=O)c1ccc2c(c1)N(Cc1ccccc1)CCS2,0%,167%[activator]
O=C(Nc1ccc(NCc2ccccc2)c(Cl)c1)c1cc[n+]([O-])cc1,9%,15%
O=C1NC(C(=O)O)=CC(c2ccc(Br)cc2)N1 (configuration not stated),9%,-5%
CCOCCCNCc1ccc(F)cc1,-2%,4%
COCCNc1ncnc2onc(-c3ccc(F)cc3)c12,-6%,0%
Cc1ccc(-c2cc(C(=O)NCc3ccccc3)c3ccccc3n2)o1,-2%,-2%
O=C(CSc1nc(-c2cccs2)nc2cc(=O)[nH]n12)Nc1ccccc1,-12%,-6%
O=S(=O)(c1ccc(F)cc1)N1CCC(Oc2ccc(-n3cnnn3)cc2)CC1,-5%,-15%
CC(C)c1ccc(-c2nc3cc(NC(=O)c4cccnc4)ccc3o2)cc1,-33%,?
COc1ccc(C)cc1NC(=O)Cn1c(=O)cc(C)c2c(C)nn(C)c21,?,-24%
CC1(C)CC(=O)c2cc(-c3nc(-c4ccc(Cl)cc4)cs3)c(=O)n(-c3ccc(Cl)cc3)c2C1,2%,-5%
Cc1cc(Cl)ccc1NC(=O)CCNC(=O)CCC(=O)c1cccs1,-4%,-12%
C=CCNC(=S)N/N=C/c1ccc(Cl)cc1Cl,-6%,36%[activator]
CCCCn1c(=O)[nH]c(=O)c2c1nc(COC(=O)c1ccccc1C(F)(F)F)n2CC,-18%,-15%
Cc1ccc(SCc2nc(-c3ccc(C(=O)NCc4cccnc4)cc3)oc2C)cc1,?,-28%
CC(C)(C)c1nnc(Nc2ccc(Br)cc2)[nH]c1=O,9%,-10%
COC(=O)C(Cc1ccc(O)cc1)NC(=O)c1nn(C)c(=O)c2ccccc12 (configuration not stated),11%,2%
Fc1nc(F)c(F)c(Sc2cccc3cccnc23)c1F,3%,-7%
COc1ccc(CCNc2nc3c(c(=O)n(C)c(=O)n3C)n2Cc2ccccc2Cl)cc1OC,1%,-2%
Cc1ccc2[nH]c(C(=O)NCc3ccc4c(c3)OCO4)cc2c1,43%[activator],47%[activator]
Cc1ccc(NC(=O)c2ccc(=O)n(CC(=O)Nc3cc(C)cc(C)c3)n2)cc1,-8%,-1%
Cc1ccc(CNC(=O)Cn2cc3c(n2)-c2c(oc(C(=O)N4CCOCC4)c2C)CC3)cc1,-4%,3%
CCCN1CCC(N(C)C(=O)c2cc3ccccc3c(OC)n2)CC1,-9%,-11%
Cc1ccc(NC(=O)C2=C(c3ccccc3)NC(=S)NC2c2ccc(Br)cc2)cc1 (configuration not stated),16%,32%[activator]
CCNC(=S)NC1CC(C)(C)NC(C)(C)C1,-10%,0%
CS(=O)(=O)N(CC(=O)Nc1ccc(Br)cc1)c1cccc(Cl)c1Cl,-5%,214%[activator]

# Source: PubChem (National Center for Advancing Translational Sciences (NCATS))
